Screening results (PubChem BioAssay)
RanGTP-Impb inh: disruptors of Ran-importin-beta complex formation – biochemical, FRET, CFP-Ran, YFP-importin-beta, homogeneous, primary screen; cell-free CFP-Ran/YFP-importin-beta FRET ratio; AID 2216; inhibition, % (no concentration beside the values); hit rate 1.1% among 300,000;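 active = most replicates above 15%; inconclusive = exactly half above 15%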;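 note: 0% = DMSO wells and 100% = Ran loaded with GDP instead of GTP; wells of about 40 µL received 100 nL stock; the first replicate is given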
FGF22 binding: binders of recombinant human FGF22 by thermal shift. hit rate 1.5% among 340,000. SYPRO orange fluorescence; percent of sucrose octasulfate shift, DMSO zero. AID 651658. Q9HCT0. calls only at 9.99 µM;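 active = melting point raised past a set limit in the mean and every replicate; inconclusive = no clear call; three in four hits are not shown here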
Target sequence (Q9HCT0 whole entry, looked up): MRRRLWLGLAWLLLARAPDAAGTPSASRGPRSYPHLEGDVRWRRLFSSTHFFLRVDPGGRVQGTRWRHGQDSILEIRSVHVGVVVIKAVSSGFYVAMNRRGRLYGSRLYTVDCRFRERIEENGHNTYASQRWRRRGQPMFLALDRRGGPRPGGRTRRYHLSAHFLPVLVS
UCH37 inh: blocks the human deubiquitinase UCH37 | purified proteasome/UCH37, Ub-AMC cleavage fluorescence | inhibition, % (no concentration beside the values) | hit rate 0.33% among 330,000;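 active = mean of two replicates above 20%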;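 note: 0% = compound-free wells with enzyme and 100% = wells lacking proteasome; stock transfer was 100 nL into about 20 µL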
Target sequence (Q9Y5K5 whole entry, looked up): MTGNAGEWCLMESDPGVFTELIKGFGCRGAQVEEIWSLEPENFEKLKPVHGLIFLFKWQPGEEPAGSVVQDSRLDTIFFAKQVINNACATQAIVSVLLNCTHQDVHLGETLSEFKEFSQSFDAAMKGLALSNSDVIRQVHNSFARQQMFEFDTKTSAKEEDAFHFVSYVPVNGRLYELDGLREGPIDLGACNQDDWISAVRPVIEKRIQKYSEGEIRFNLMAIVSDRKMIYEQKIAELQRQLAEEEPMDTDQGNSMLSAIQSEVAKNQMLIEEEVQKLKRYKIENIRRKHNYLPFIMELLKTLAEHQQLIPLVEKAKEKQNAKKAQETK
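Assay system: Proteasome-bound UCH37. Buffer or medium: pH 7.4 Tris-HCl (50 mM) with ovalbumin, ATP-MgCl2, DTT. Incubation: 30 min preincubation with enzyme, 25 min cleavage at room temperature. Measured by: fluorescence, ex 355 nm, em 460 nm. Read-out basis: percent inhibition. Control set: wells without proteasome as full block, compound-free enzyme plus substrate as uninhibited.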
Ecoli growth: inhibitors of Escherichia coli growth; OD600, 23 h; stronger effect = lower value; OD600 absorbance (test concentration not listed); hit rate 0.21% among 330,000; AID 1053175;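 active = OD600 absorbance below the run mean of sample wells minus 3.6 SD, in any replicate, cut at about 0.56 in these data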;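 note: stock transfer was 300 nL into about 60 µL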
Vif TR-FRET: HIV-1 Vif–A3G interaction blockers – biochemical, TR-FRET, GST-Vif 1-94, biotin-A3G peptide, dose response retest, primary screen (AID 1117319). TR-FRET GST-Vif / biotin-A3G peptide binding; higher % means a stronger effect; test concentration not given here; strong numbers were not always called active. inhibition, %; hits with a dose series show IC50 in µM. hit rate 0.57% among 260,000;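 active = above the screen mean plus three standard deviations and confirmed in dose response; inconclusive = results disagree or hit not tested in dose response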;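 note: Vif residues 1-94 fused to GST binding biotinylated APOBEC3G peptide 110-148; 0% = full assay without inhibitor and 100% = GST in place of GST-Vif; retest series ran down from 100 µM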
MLL AF4-AF9 inh: MLL-AF4/AF9 protein interaction inhibition | hit rate 0.47% among 350,000 | P42568 | inhibition, % at 10 µM | AlphaScreen, biotin-AF4 peptide binding to FLAG-AF9;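 active = every replicate reaching a set inhibition limit, whatever the replicate mean, cut at about 25% in these data; inconclusive = mean inhibition reaches that limit but some replicates miss it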;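 note: 0% = plate neutral control median and 100% = total signal loss; the record names both 10 and 1 µM as test concentration; the first replicate is given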
HNF4A DNA FP: change in binding of human HNF4 alpha to DNA | P41235 | HNF4a-FITC DNA binding, fluorescence polarization, 1 h | activity change, % at 10 µM | hit rate 0.3% among 360,000 | AID 1224865; in the data active = activity change above about 30%, passing the limit was not always enough;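 note: controls were the assay level and a saturating level of protein; the project sought stronger binding though the title names inhibitors; some compounds called inactive have numbers as strong as hits; positive values seem to mean higher polarization but the record does not say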
Target sequence (P41235 whole entry, looked up): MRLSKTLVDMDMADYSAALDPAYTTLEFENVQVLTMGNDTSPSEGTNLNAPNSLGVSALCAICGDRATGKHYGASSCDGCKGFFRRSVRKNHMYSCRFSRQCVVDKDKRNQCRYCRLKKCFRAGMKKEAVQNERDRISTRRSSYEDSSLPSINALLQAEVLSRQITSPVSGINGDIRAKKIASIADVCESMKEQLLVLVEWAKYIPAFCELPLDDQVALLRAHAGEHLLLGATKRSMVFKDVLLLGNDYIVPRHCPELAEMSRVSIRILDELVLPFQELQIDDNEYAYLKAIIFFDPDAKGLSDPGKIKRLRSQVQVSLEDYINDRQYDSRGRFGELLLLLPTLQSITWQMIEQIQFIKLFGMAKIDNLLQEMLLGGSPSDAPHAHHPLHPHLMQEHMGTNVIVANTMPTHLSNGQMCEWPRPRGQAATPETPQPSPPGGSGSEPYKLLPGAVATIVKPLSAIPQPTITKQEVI
* hit, by the source's call; i = inactive; ? = inconclusive; · = not tested or not shown. Not all compounds are listed (hit frequency here may not be typical).

SMILES	RanGTP-Impb inh	FGF22 binding	UCH37 inh	Ecoli growth	Vif TR-FRET	MLL AF4-AF9 inh	HNF4A DNA FP
COc1ccc(S(=O)(=O)NCc2ccco2)cc1NC(=O)c1ccccc1	-1.3	i	3.6	0.66	·	0.3	-3.5
CCN1C(=O)[C@@H]2[C@@H]3CN(S(=O)(=O)c4ccc(C)cc4)[C@@H](c4ccccc4)[C@@H]3C(=O)C[C@@H]2C1=O	·	i	·	·	·	-0.1	0.5
CCCNC(=O)C1(C)CCCN(Cc2cc(-c3ccccc3)n(C)n2)C1 (stereo unspecified)	·	i	·	·	·	0.7	-3.8
O=C(NC1CCCCC1)C(=O)N(Cc1cccnc1)C(C(=O)NCc1ccco1)c1ccccc1 (stereo unspecified)	3.7	·	-0.1	0.66	-1%	·	·
O=C(OCc1cn([C@H]2C[C@H](c3ccc(Cl)cc3)N(Cc3cccs3)C[C@@H]2O)nn1)c1ccccc1	·	·	·	·	-4%	-2.7	5.7
CC(C)(C)N=C(NS(=O)(=O)c1cccs1)c1ccccc1	8.5	i	1.5	0.72	·	-1.1	-0.5
Cc1ccc(NC(=O)CCCNC(=O)c2ccc(Cl)cc2)cc1S(=O)(=O)N1CCOCC1	·	i	-0.1	0.67	·	-0.8	-1.8
COc1cc(-c2cnc3c(NC=O)cc(-c4cccc(C(F)(F)F)c4)cn23)cc(OC)c1OC	·	i	·	·	·	1.6	4.2
O=C(NCc1ccco1)NC1CCCCC1	1.3	·	1.5	0.76	-3%	·	-0.2
CC(c1cccs1)N(Cc1ccco1)C(=S)Nc1ccccc1Cl (stereo unspecified)	0.9	i	-1.1	0.73	-2%	-4.0	1.3
CCOC(=O)c1ccc(NS(=O)C23CC4CC(CC(C4)C2)C3)cc1 (stereo unspecified)	3.4	·	4.3	0.69	-4%	·	3.7
N#CCn1c(CCl)nc2ccccc2c1=O	3.3	i	-1.1	0.63	?	-1.1	-1.1
CN1CCCN(C(=O)CC2(CC(=O)O)CCCCC2)CC1	?	i	1.2	0.68	-3%	-1.2	0.4
N#CC(=Cc1ccccn1)c1nc(-c2ccc(Cl)cc2)cs1	·	i	·	·	-1%	-3.6	16
C=CC[C@@H](CC(=O)N[C@@H](CO)Cc1ccccc1)C(=O)N[C@H](COC(=O)[C@@H](CC=C)Cc1ccc(F)cc1)Cc1ccccc1	·	i	1.5	·	·	-1.8	-1.3
COc1ccc(/C=C/c2nnc(NC(=O)c3ccco3)s2)cc1	8.9	i	-76	0.67	-3%	3.3	5.3
Cc1ccc(C)c(S(=O)(=O)N2CCCC2CNC(=O)C(=O)Nc2ccccc2)c1 (stereo unspecified)	·	i	·	·	·	0.1	-3.4
O=[N+]([O-])c1cccc(/C=N/Nc2nc(C(Cl)(Cl)Cl)nc3ccccc23)c1	?	·	·	·	0%	·	0.5
O=c1c2ccccc2cnn1Cc1ccc(Cl)c(Cl)c1	-6.4	i	0.6	0.68	·	-3.6	1.3
COc1ccc([C@H]2C[C@H](n3cc(C4CC4)nn3)[C@@H](O)CN2C(=O)C2CCCCC2)cc1	·	i	·	·	·	0.9	-0.7
O=C(Oc1ccc(C(=S)N2CCOCC2)cc1)c1ccc(F)cc1	0.0	i	1.2	0.65	-12%	-4.2	-3.8
COc1ccc(F)cc1C(=O)C1CCCN(C(=O)c2ccccc2N(C)C)C1 (stereo unspecified)	-0.8	i	4.2	0.72	4%	3.6	-0.4
Cc1c(C(=O)OC2CCCCC2)sc2nc[nH]c(=O)c12	?	·	-1.6	0.68	5%	·	3.9
O=C(CSc1ccccc1C(=O)N1CCCCC1)NCC1CCCCC1	-2.9	i	-3.1	0.69	·	3.9	-0.9
CC(=O)C1=CCC(c2ccc(C)o2)N(S(=O)(=O)c2ccc(C)cc2)C1 (stereo unspecified)	·	i	·	·	·	-2.2	-2.4
Further structures follow.
SMILES	RanGTP-Impb inh	FGF22 binding	UCH37 inh	Ecoli growth	Vif TR-FRET	MLL AF4-AF9 inh	HNF4A DNA FP
CCC(C)(C)NC(=O)Nc1cc(Cl)ccc1OC	-2.2	i	4.4	0.74	24%	-0.9	-3.2
CCOC1CS(=O)(=O)CC1OCC (stereo unspecified)	1.7	·	-0.7	0.68	-1%	·	3.0
Cc1cccc(-n2c(N)cc(=O)[nH]c2=S)c1	4.1	·	-2.0	0.69	-3%	·	6.9
O=C(NCC1CCCO1)c1ccc2c(=O)n(Cc3ccco3)c(SCC(=O)N3CCCC3)nc2c1 (stereo unspecified)	0.8	·	3.9	0.73	-5%	·	4.8
Cc1cc(-n2c(C)cc(C(=O)CSc3nnc4sc5ccccc5n34)c2C)no1	-1.1	·	4.6	0.67	5%	·	2.0
COc1ccc([C@H]2CC(=O)C=C(c3cccc(OC)c3OC)C2)cc1OC	·	i	1.8	·	·	2.1	2.3
Cc1ccc(OCC(=O)OC(C)CN2CCCCC2)cc1 (stereo unspecified)	3.5	i	-0.2	0.68	·	0.3	-3.8
COc1ccc(C(=O)N/N=C/c2ccc(N3CCOCC3)s2)cc1OC	·	i	·	·	5%	-2.5	5.1
CC(C)c1ccc(NC(=O)COC(=O)C2CC3C=CC2C3)cc1 (stereo unspecified)	·	i	2.4	0.66	·	-0.3	0.7
O=C(c1cccs1)N1CCCC(c2nc3c(nnn3Cc3c(Cl)cccc3Cl)c(=O)[nH]2)C1 (stereo unspecified)	-0.4	i	0.7	0.62	5%	2.5	-0.4
COc1ccc(CN2CCC(n3nccc3NC(=O)CCc3ccccc3)CC2)c(C)c1C	4.3	i	3.4	0.65	·	4.2	3.2
COC(=O)c1cn(C(=O)c2ccc(F)cc2)c2ccccc12	0.9	i	3.2	0.66	·	-2.0	-0.9
COc1ccccc1N1CCN(C(=O)C(=O)c2c(C)n(C)c3ccccc23)CC1	-2.5	i	4.5	0.66	·	-0.4	-2.9
CC(=O)OCCN(CCCn1c(-c2ccncc2)nc2ccccc21)c1nc(CN2CCCCC2)cs1	-0.8	i	0.4	0.75	·	5.7	-2.0
COc1ccc(Cl)cc1NC(=O)N1CCN(c2ccccc2OC)CC1	0.2	i	4.5	0.7	?	1.2	-1.4
O=C(O)CN1C(=O)NC2(CCOc3ccccc32)C1=O (stereo unspecified)	-0.1	i	3.0	0.7	6%	3.2	0.9
COc1ccc(NC(=O)C2COc3ccccc3O2)cc1S(=O)(=O)N1CCOCC1 (stereo unspecified)	·	i	1.5	0.65	·	0.2	-3.9
CCC(=O)c1ccc(OCC(O)CN(CCc2ccccc2)Cc2ccccc2)cc1 (stereo unspecified)	-4.9	·	-0.1	0.66	5%	·	-0.8
CCOC(=O)C(=CNc1ccc2c(c1)CCN2C(C)=O)C(=O)OCC	-1.9	i	9.6	0.61	-3%	-4.5	1.2
O=c1[nH]nc(SCCS(=O)(=O)c2ccc(F)cc2)n1-c1ccccc1C(F)(F)F	1.7	i	8.5	0.68	-4%	-0.2	2.5
COC(=O)c1ccc(N2C(=O)CC(NCc3ccccc3)C2=O)cc1 (stereo unspecified)	1.2	·	2.2	0.7	-2%	·	-8.2
NC(=O)CC(NC(=O)Cc1cccc2ccccc12)c1ccc(N2CCN(c3ccccc3)CC2)c([N+](=O)[O-])c1 (stereo unspecified)	0.9	·	0.0	0.69	4%	·	-3.3
O=C(COc1cccc(C(F)(F)F)c1)Nc1cccnc1	-0.4	i	-2.4	0.69	·	-3.6	-5.3
Cc1ccc(S(=O)(=O)Nc2cccc(C(=O)NCCCN3CCOCC3)c2)cc1F	6.3	i	1.3	0.59	-1%	-15	5.6
CC#CC(=O)N1CCC(CO)(CCc2ccccc2)CC1	-1.1	i	2.3	0.67	5%	-0.4	5.3

The last 4 compounds of the section before come first, to join the parts.
SMILES	RanGTP-Impb inh	FGF22 binding	UCH37 inh	Ecoli growth	Vif TR-FRET	MLL AF4-AF9 inh	HNF4A DNA FP
NC(=O)CC(NC(=O)Cc1cccc2ccccc12)c1ccc(N2CCN(c3ccccc3)CC2)c([N+](=O)[O-])c1 (stereo unspecified)	0.9	·	0.0	0.69	4%	·	-3.3
O=C(COc1cccc(C(F)(F)F)c1)Nc1cccnc1	-0.4	i	-2.4	0.69	·	-3.6	-5.3
Cc1ccc(S(=O)(=O)Nc2cccc(C(=O)NCCCN3CCOCC3)c2)cc1F	6.3	i	1.3	0.59	-1%	-15	5.6
CC#CC(=O)N1CCC(CO)(CCc2ccccc2)CC1	-1.1	i	2.3	0.67	5%	-0.4	5.3
CCc1cccc(C)c1NC(=S)NCc1ccc2c(c1)cc(C)n2C	0.1	i	6.2	0.79	-87%	-0.2	-2.0
Cc1cccc(OC(=O)c2ccncc2)c1C	0.7	i	·	·	·	-3.2	3.9
Cc1cc(C)nc(NC2=NCC(=O)N2c2cccc(Cl)c2)n1	3.3	·	3.5	0.68	2%	·	-1.6
Cc1[nH]c(=O)[nH]c(=O)c1S(=O)(=O)N1CCCc2ccccc21	3.6	i	0.1	0.68	·	-16	-1.7
Cc1cc(-c2nnco2)c(C)n1-c1ccc(F)cc1	-3.1	i	0.6	0.64	2%	-6.6	-2.7
COc1ccc(NC(=O)COC(=O)c2ccc(N3CCCC3=O)cc2)cc1OC	-2.3	·	-0.9	0.73	-1%	·	-0.9
CSc1ccc(C(C(C(=O)c2cccs2)N2CCOCC2)N2CCOCC2)cc1 (stereo unspecified)	-2.8	·	6.8	0.71	20%	·	1.6
NNC(=O)CNC(c1ccccc1)c1cc(Br)ccc1NC(=O)c1ccc(Br)cc1 (stereo unspecified)	-5.0	·	3.4	0.68	·	·	-0.4
CN1C(=O)N(CC(=O)NCc2ccc(Cl)cc2Cl)C(=O)C12CCCCC2	·	·	0.7	0.69	-9%	2.5	-0.6
Cc1nc2ccccc2n1CCOc1ccc(F)cc1	-4.5	i	1.3	0.64	3%	2.3	1.1
CCOc1ccc(-c2noc(-c3cccnc3)n2)cc1OCC	1.0	i	0.9	0.68	-8%	·	0.2
COc1cc(C2C(C#N)=C(N)Oc3c2ccc2ccccc32)ccc1OCC(=O)Nc1cccc(C)c1 (stereo unspecified)	-2.2	i	0.2	0.7	-15%	6.4	8.5
O=C(N/N=C/C=C/c1ccccc1)c1cc2c(ccc3ccccc32)o1	-3.0	·	·	·	-6%	·	1.9
O=C(NCc1ccccn1)[C@@H]1CCCN1C(=O)[C@@H]1CCCN1C(=O)c1cccs1	·	i	·	·	·	0.8	-0.1
CC(OC(=O)/C=C/c1cccs1)C(=O)Nc1ccc(C(N)=O)cc1 (stereo unspecified)	·	i	4.2	0.67	-1%	1.0	1.1
COC(=O)c1ccc(CSc2nc(-c3ccccc3)cs2)o1	0.8	i	5.7	0.74	-1%	-5.7	3.0
Nc1nnc(CCOc2ccccc2Cl)s1	3.1	·	-1.9	0.66	8%	·	1.1
COc1ccc(CNC(=O)C2CC(C)=C(C)CC2C(=O)O)cc1 (stereo unspecified)	-1.5	·	0.8	0.7	-1%	·	-1.2
COc1ccc(COC(=O)N/N=C(\C)CC(=O)Nc2c(C)cc(C)cc2C)cc1	2.1	·	·	·	27%	·	2.0
CCCNC(=O)COC(=O)c1cc(C)nc2ccccc12	1.2	i	-6.0	0.7	·	-0.2	0.9
COc1cc2ccccc2cc1C(=O)Nc1ccccc1Cl	-5.0	i	-12	0.62	-3%	-13	0.1
Cc1cc(C(=O)COC(=O)c2ccc[nH]c2=O)c(C)n1-c1ccccc1F	3.2	i	5.0	0.65	?	-9.4	0.8
Cc1ccccc1NC(=S)N(Cc1ccccc1)Cc1cccnc1	?	i	1.4	0.7	·	-1.0	3.1
O=C(Nc1ccccc1)c1ccc(NCCN2CCOCC2)c(S(=O)(=O)N2CCOCC2)c1	-0.4	·	2.8	0.7	14%	·	3.5
